PINK1 expr mod = A Quantitative High throughput Screen to Identify Chemical Modulators of PINK1 Expression; Potency, µM (top dose mostly 76.6 µM), inactives show top-dose activation (PINK1 increase), hits mostly activators; PINK1 immunofluorescence, high-content cytometry, 24 h; 410,000 compounds, 0.2% hits; active = well fitted activation curve with a large enough effect; inconclusive = small, poorly fitted or top-dose-only effect; inactive = flat fitted curve, though single readings scatter; cell line not stated here;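 further: potency means the concentration at half of the fitted maximal effect; % of control where 0% means no effect; nearly all actives have a fitted effect of over 65% in size; a mitochondrial uncoupler was the plate control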
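Stable cell line, 250 cells/well, 12 h attachment; compounds pinned at 5 concentrations, 24 h; CCCP control. Fixed with nuclear dye, primary antibodies 12 h at 10 degrees C, secondary plus cell stain; laser-scanning cytometer read.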
D2 potentiator = Beta-Arrestin HTS for Positive Allosteric Modulators of the Human D2 Dopamine Receptor: Potentiators; DiscoveRx D2 beta-arrestin cells, luminescence, 90 min; 100% = 57 uM dopamine signal; D(2) dopamine receptor (Homo sapiens), P14416; 360,000 compounds, 0.23% hits; potentiation, % (no concentration beside the values); active = potentiation of 50% or more; inconclusive = 30% to 50%; inactive = 30% or less;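 further: compound concentration not given in the record; tested on top of an EC20 dose of dopamine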
Target sequence (P14416 whole entry, looked up): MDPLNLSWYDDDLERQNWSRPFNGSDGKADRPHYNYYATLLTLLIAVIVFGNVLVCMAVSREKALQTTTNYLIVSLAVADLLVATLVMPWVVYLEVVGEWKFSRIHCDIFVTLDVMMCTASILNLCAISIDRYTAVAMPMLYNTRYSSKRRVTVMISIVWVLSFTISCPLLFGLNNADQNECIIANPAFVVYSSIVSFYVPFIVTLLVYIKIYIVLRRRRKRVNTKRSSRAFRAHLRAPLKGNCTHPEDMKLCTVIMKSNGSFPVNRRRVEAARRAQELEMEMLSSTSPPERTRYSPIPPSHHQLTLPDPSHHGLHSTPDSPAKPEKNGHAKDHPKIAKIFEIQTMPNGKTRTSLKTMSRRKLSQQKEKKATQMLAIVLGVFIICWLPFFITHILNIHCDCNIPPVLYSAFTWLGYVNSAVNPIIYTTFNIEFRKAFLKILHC
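PathHunter beta-arrestin assay in DiscoveRx D2 cells. Compounds were added with an EC20 of dopamine (50 nM final) for 90 min at 37 deg C. Luminescence was read 1 h after detection reagent, with 57 uM dopamine as the EC100 control.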
Six1-Eya2 blk = qHTS Assay for Inhibitors of the Six1/Eya2 Interaction. activity change, % (test concentration not listed). 360,000 compounds, 0.56% hits. Homeobox protein SIX1 (Homo sapiens) + Protein phosphatase EYA2 (Homo sapiens), …. AlphaScreen GST-Six1/His-Eya2 binding, biochemical; stronger effect = lower value; control for the full effect not named in the record; in the data active = activity change below about -65%; inconclusive = about -30% to -65%; inactive = above about -30%; further: on the % scale 0 is the no-effect control and ±100 the full control effect
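GST-Six1 + His-Eya2 (5X stock: 250/500 nM); Tris pH 8.0, 300 mM NaCl, 0.05% BSA, 0.02% Tween 20; GSH donor/Ni acceptor beads; 1 h 37 °C dark; AlphaScreen readout.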
TRPML1 agonist = qHTS for Agonists of the Human Mucolipin Transient Receptor Potential 1 (TRPML1). TRPML1-expressing cells, Ca2+ dye fluorescence, FDSS; host cell line not named in the record; reference of the full effect not given here. activation, % (no concentration beside the values). 410,000 compounds, 0.12% hits; in the data active = activation above about 50%; inconclusive = about 30% to 50%; inactive = below about 30%; further: 0% is about no effect; the text of the record puts the active cut at 80%
Target sequence (Q9GZU1 whole entry, looked up): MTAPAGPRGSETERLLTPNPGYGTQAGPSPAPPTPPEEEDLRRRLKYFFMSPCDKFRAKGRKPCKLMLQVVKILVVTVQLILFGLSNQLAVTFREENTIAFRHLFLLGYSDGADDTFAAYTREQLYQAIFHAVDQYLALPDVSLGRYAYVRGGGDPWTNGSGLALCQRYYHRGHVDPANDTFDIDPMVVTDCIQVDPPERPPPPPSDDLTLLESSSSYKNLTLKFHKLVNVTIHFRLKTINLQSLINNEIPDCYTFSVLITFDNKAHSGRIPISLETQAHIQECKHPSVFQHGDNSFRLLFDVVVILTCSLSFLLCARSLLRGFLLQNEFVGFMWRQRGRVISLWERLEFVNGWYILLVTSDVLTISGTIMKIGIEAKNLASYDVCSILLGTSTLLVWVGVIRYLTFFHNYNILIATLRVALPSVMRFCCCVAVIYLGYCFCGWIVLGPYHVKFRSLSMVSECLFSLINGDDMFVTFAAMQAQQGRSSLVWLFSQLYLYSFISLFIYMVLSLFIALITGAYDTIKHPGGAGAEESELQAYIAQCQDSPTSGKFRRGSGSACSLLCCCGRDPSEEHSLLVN
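Cells: TRPML1-DL, 1X Tet inducer, ~16 h at 37 degrees C/5% CO2. Dye: ABD Ca8 no-wash + quencher, 45-90 min RT. Read: 10 s baseline, compound add, 110 s agonist phase; 54-4 EC80 (4uM final), 110 s antagonist phase.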
D2 agonist = Beta-Arrestin HTS for Positive Allosteric Modulators of the Human D2 Dopamine Receptor: Agonists | DiscoveRx PathHunter D2 beta-arrestin, luminescence, 90 min; 100% = 57 uM dopamine signal | activation, % (test concentration not listed) | 360,000 compounds, 0.084% hits; in the data active = activation above about 40%; inconclusive = about 15% to 40%; inactive = below about 15%; further: compound concentration not given in the record; the text of the record calls up to 30% inactive
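Agonist mode: compounds alone added to overnight-plated D2 PathHunter cells for 90 min at 37 C, with 57 uM final dopamine (EC100) defining full response. Beta-arrestin recruitment detected by chemiluminescent reagent, read after 1 h at ambient temperature.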
CtBP-E1A inh = qHTS Assay for Inhibitors of the CtBP/E1A Interaction | CtBP / adenovirus E1A interaction (AlphaScreen) | AlphaScreen GST-E1A/His-CtBP binding, 1536-well; stronger effect = lower value; control for the full effect not named in the record | activity change, % (test concentration not listed) | 340,000 compounds, 0.49% hits | AID 651724, 2012; in the data active means activity change below about -65%; inconclusive means about -30% to -65%; inactive means above about -30%; further: on the % scale 0 is the no-effect control and ±100 the full control effect
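AlphaScreen with 125 nM GST-E1A and 125 nM His-CtBP (5X stocks) in Tris pH 8.0, 300 mM NaCl, BSA, Tween 20, TCEP. Compounds preincubated 2 h at 37 deg C, then glutathione donor/nickel acceptor beads added for 1 h at 37 deg C in dark.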
* = called active by the depositor; ? = inconclusive; · = not tested or not shown; & = joins results of further samples; [ ] = another dose, or the depositor's remark. Rows were taken by chance; about 1.3% have a hit in one of these screens.

SMILES	PINK1 expr mod	D2 potentiator	Six1-Eya2 blk	TRPML1 agonist	D2 agonist	CtBP-E1A inh
COC(=O)c1ccc(C(=O)Nc2ccc(C(C)C)cc2N)cc1	-0.4%	-2	1	0.9	-3.9	9
COc1ccc(N(CC(=O)N2CCN(c3cccc(C)c3)C(C)C2)S(=O)(=O)c2c(C)n[nH]c2C)cc1 (stereo not drawn)	-0.2%	-3	-4	1.3	-0.3	-16
COc1cccc(C2C3(C#N)C(N)=NC(OC)(OC)C23C#N)c1 (stereo not drawn)	0.5%	-28	-5	-0.5	-5.3	0
COc1ccc2oc(C(=O)OCC(=O)N3CCN(C(C)=O)CC3)c(C)c2c1	3.6%	28	-4	-1.0	-3.9	1
CS(=O)c1ccc(-n2c(=O)n(Cc3ccccc3)c(=O)c3[nH]cnc32)cc1 (stereo not drawn)	3.8%	-8	-10	0.5	-4.5	6
CC(OC(=O)C1=COCCO1)C(=O)Nc1cc(S(=O)(=O)N2CCCCC2)ccc1Cl (stereo not drawn)	6.0%	-3	-7	0.6	-6.8	0
CCOC(=O)c1nnc(-c2ccccc2)nc1NCc1ccc(Cl)cc1	-0.5%	-8	-15	1.4	-1.3	4
Cc1ccc(NC(=O)C(c2ccc(Cl)cc2)N2CCCCC2)cc1 (stereo not drawn)	-1.1%	0	4	2.8	2.2	-1
O=C(CCCn1c(=O)[nH]c2ccsc2c1=O)N1CCCCC1	-3.1%	-5	2	0.3	-4.3	0
CCOC(=O)c1cc(-c2ccccc2C)nn1Cc1cc(C)no1	4.3%	3	10	0.4	1.6	1
COc1cccc(C(=O)NCCN2CCN(c3ccc(Cl)cc3)CC2)c1	0.0%	·	-1	-0.8	·	-21
Clc1ccc(CN2C3=NCCCN3c3ccccc32)cc1Cl	1.5%	-10	0	1.6	1.0	2
CCCCC(=O)Nc1ccccc1N1CCOCC1	2.1%	-4	-4	-0.2	-0.6	0
CCOc1ccccc1CN1CCN(Cc2ccc3cccc(OC)c3n2)CC1CCO (stereo not drawn)	1.1%	-3	-4	-0.3	-8.0	-24
COc1ccc(C(=O)NCC(=O)NCc2cc(=O)n(C)c(=O)n2C)cc1	-1.0%	-28	-9	0.7	-3.0	-12
Cc1cc(C(=O)COC(=O)Cc2n[nH]c(=O)c3ccccc23)c(C)n1-c1ccc2c(c1)OCO2	2.1%	-5	-17	2.3	2.5	-12
COC(=O)C(CCSC)NC(=O)c1cc2c(n(-c3ccc(C)cc3)c1=O)CCCC2=O (stereo not drawn)	-0.5%	-2	-4	-0.6	-5.8	0
CC(C)NC(=O)CSc1ccccc1C(=O)NNC(=O)Cn1ccc(C(F)(F)F)n1	-1.5%	-7	-1	-0.4	-1.8	1
CCC1CCCCN1c1ccc([N+](=O)[O-])cc1/C=N/NC(=O)Cn1c2ccccc2c(=O)c2ccccc21 (stereo not drawn)	0.1%	0	-3	1.0	-0.9	-1
CCCCOCCCNC(=O)C1c2ccccc2Oc2ccccc21	-1.3%	-3	0	0.2	-1.0	-6

Of the compounds above, 4 have an NH in an aromatic ring.
SMILES	PINK1 expr mod	D2 potentiator	Six1-Eya2 blk	TRPML1 agonist	D2 agonist	CtBP-E1A inh
COc1ccc(N(CC(=O)N2CCN(c3cccc(C)c3)C(C)C2)S(=O)(=O)c2c(C)n[nH]c2C)cc1 (stereo not drawn)	-0.2%	-3	-4	1.3	-0.3	-16
CS(=O)c1ccc(-n2c(=O)n(Cc3ccccc3)c(=O)c3[nH]cnc32)cc1 (stereo not drawn)	3.8%	-8	-10	0.5	-4.5	6
O=C(CCCn1c(=O)[nH]c2ccsc2c1=O)N1CCCCC1	-3.1%	-5	2	0.3	-4.3	0
Cc1cc(C(=O)COC(=O)Cc2n[nH]c(=O)c3ccccc23)c(C)n1-c1ccc2c(c1)OCO2	2.1%	-5	-17	2.3	2.5	-12

Next part
SMILES	PINK1 expr mod	D2 potentiator	Six1-Eya2 blk	TRPML1 agonist	D2 agonist	CtBP-E1A inh
Cc1ccc2nc(NC(=O)C3CCCN(S(=O)(=O)c4cccnc4)C3)sc2c1 (stereo not drawn)	-1.6%	-7	-4	1.1	-2.1	0
CN(C)/C=C/C(=O)c1ccc(Oc2ncccn2)cc1	2.4%	0	0	-0.8	-0.9	8
Cc1ccc(NC(=O)C2CCCN(S(=O)(=O)c3c(C)noc3/C=C/N(C)C)C2)cc1F (stereo not drawn)	0.8%[38.3 µM]	0	-3	2.0	-1.6	0
CCC(=Nc1ccccc1)C1=C(O)CCCC1=O	0.3%	-6	13	-0.1	-3.8	0
O=C(c1ccc(Cl)c(Cl)c1)N1CCC(O)(CN2CCOCC2)CC1	1.1%	-12	0	-0.7	-1.8	-2
CN1CCN(c2nc3c(c(=O)n(C)c(=O)n3C)n2CCSc2nnnn2-c2ccccc2)CC1	-1.1%	-4	-7	-0.8	-5.8	2
CCOc1ccc(-c2cc(CCCC(=O)NCCc3ccccc3)no2)cc1	-1.9%	-16	1	-0.4	-2.1	4
CN(C)CCCNC(=O)C[C@H]1C[C@H](C(=O)N2CCOCC2)[C@@]2(C)c3[nH]c4ccc(Cl)cc4c3CCN2C1=O	0.9%	-1	0	0.0	-2.6	4
Cc1ccc(S(=O)(=O)N2CCCCC2C(=O)N2CCN(C)CC2)cc1 (stereo not drawn)	-1.0%	-35	-3	0.5	-4.4	-4
O=C(/C=C/c1cccs1)Nc1nc(-c2ccccc2)cs1	-1.8%[38.3 µM]	-7	8	1.9	0.1	13
CCOc1cc(CNn2nnnc2N)ccc1OCC(=O)NC(C)(C)C	-3.7%[38.3 µM]	1	1	-0.3	1.0	-5
Cc1ccc(-c2cc(C(=O)OCC(=O)N(C)c3c(N)n(Cc4ccccc4)c(=O)[nH]c3=O)c3ccccc3n2)o1	4.8%	-20	-14	1.4	9.4	4
CC(=O)Oc1ccc(C(=O)Nc2cccc(C(=O)Nc3ccccc3C(=O)O)c2)cc1	0.0%	14	-28	1.2	6.7	?
COc1ccc(C(C(=O)NC2CCCCC2)N(CC2CCCO2)C(=O)CNC(=O)c2ccco2)cc1 (stereo not drawn)	-1.4%	-2	2	-0.7	-3.4	-1
CCOc1ccc(N(C)Cc2cc(=O)oc3ccc(OCC)cc23)cc1	3.7%	-7	?	1.2	-4.3	-18
COc1ccc(CCN2CC(C(=O)NCCc3ccc(C)cc3)CC2=O)cc1OC (stereo not drawn)	1.6%&0.2%	0	-16	0.2&-0.1	-3.6	-4
CC(C)(C)NC(=O)c1cc2c(ccc3ccccc32)oc1=O	0.1%	1	8	0.6	12	12
COc1ccc(C2(c3ccc(OC)cc3)NC(=O)N(CC(=O)Nc3cc(C)ccc3OC)C2=O)cc1	-0.1%	-12	-11	-0.1	-5.7	-9
CC(Sc1nc(N2CCOCC2)c2c(c1C#N)CC(C)(C)OC2)C(=O)O (stereo not drawn)	1.8%	-5	9	0.9	-3.7	-5
Cn1c(C(=O)NN)cc2cc(OCc3ccccc3)ccc21	4.6%	-5	1	5.1	-2.1	3
CC(Sc1nnnn1C)C(=O)NC(=O)NC1CCCCC1 (stereo not drawn)	-0.1%	-4	1	0.9	3.0	-4
O=[N+]([O-])c1cccc(-n2cccc2/C=N/Nc2nc(N3CCCCC3)nc(N3CCCCC3)n2)c1	3.8%	-8	-29	0.3	-0.2	2
CCCCNc1cc(=O)oc2ccccc12	-1.5%	-1	6	4.2	-3.0	9
CC(C)C(=O)NNC(=O)CSc1nc(C2CCCCC2)nc2ccccc12	3.9%	-4	0	-0.5	2.7	3
CN1C2=CC=CC=CC2=[N+](C)C12C=CC(=[N+]([O-])[O-])C=C2[N+](=O)[O-] (stereo not drawn)	0.8%	1	-25	-1.0	1.5	12
O=C(CN1CCN(Cc2ccccc2)CC1)Nc1ccc(Br)cc1	1.0%	-17	2	1.0	-7.3	·
CCC1CCCCN1CCCNC(=O)c1ccc2c(c1)N(Cc1c(F)cccc1Cl)C(=O)CS2 (stereo not drawn)	-0.7%	0	0	1.5	0.9	·
CC(=O)NC(CC(=O)Nc1ccc2c(c1)OCCO2)c1ccccc1 (stereo not drawn)	1.8%	-1	15	0.8	1.6	1
CC(=O)NNc1nc2ccccc2s1	8.3%[38.3 µM]	-14	3	0.1	1.7	0
COc1ccc(NC(=O)c2cc(-c3ccccc3Cl)on2)cc1	0.4%	-50	-2	0.4	-4.6	·
CCC(=O)c1ccc(OC(=O)c2cnccn2)cc1	0.8%	-4	-2	-0.3	-1.9	5
N/C(=N\OC(=O)N1CCOCC1)c1ccc(Cl)cc1	-1.2%	19	5	0.1	6.0	-7
O=c1oc2ccccc2c(Nc2cccc(O)c2)c1[N+](=O)[O-]	-0.5%	-26	0	-0.5	-1.6	-1
COCCn1c(N)c(N(Cc2ccccc2)C(=O)Cc2ccccc2F)c(=O)[nH]c1=O	-1.7%	1	3	0.0	0.5	8
CC1CCCCC1NC(=O)CN(C)S(=O)(=O)c1cccc2nsnc12 (stereo not drawn)	-1.4%	6	8	-0.6	0.9	8
COc1ccc2c(c1)NC(=O)CC(c1ccccc1)=N2	3.8%	-8	-4	-0.7	-4.2	2
O=C(NC(=S)Nc1ccc(N2CCOCC2)c(Cl)c1)c1sc2ccccc2c1Cl	1.2%	1	-8	0.5	-1.0	4
CN(Cc1ccccc1)C(=O)COC(=O)c1ccc(Cl)c(N)c1	2.5%	-10	6	1.2	-2.7	-7
ONC=Nc1cccc2nonc12	1.3%	-24	-5	1.1	-3.1	-1
CCC(C)NC(=O)C(=O)NCc1ccncc1 (stereo not drawn)	·	0	3	0.6	-4.1	8
O=C(O)c1ccc(Cl)c(S(=O)(=O)N(Cc2ccccc2)c2ccccc2Cl)c1	2.9%	-5	7	-0.4	-6.1	·
COc1ccccc1-c1noc(-c2cc(OC)c(OC)c(OC)c2)n1	3.6%	2	-3	3.1	-1.9	1
O=C(CNCCC1=CCCCC1)Nc1ccc(N2CCCCCC2)cc1	-4.6%	-37	?	4.1	3.7	?
COc1ccc(-c2nc(N3CCCC3)[nH]c(=O)c2C#N)cc1	-0.7%	-7	1	0.5	-0.9	-2
CCCCN(CC)C(=O)CN(C)S(=O)(=O)c1cccc2nsnc12	-0.9%	-4	10	-0.3	-1.5	-2
Cc1cc(C(=O)OCC(=O)NCCc2ccccc2)c(C)o1	0.1%	0	1	0.0	-5.4	0
COc1ccc(CCNC(=O)c2c(C)nc3ccccn23)cc1	1.2%	-3	-4	-0.2	3.9	0

Source: PubChem BioAssay (National Center for Advancing Translational Sciences (NCATS))
